HPGD inh: qHTS Assay for Inhibitors of HPGD (15-Hydroxyprostaglandin Dehydrogenase); 15-hydroxyprostaglandin dehydrogenase [NAD(+)] (Homo sapiens), P15428; purified HPGD, NADH fluorescence kinetic, PGE2 substrate; Potency, µM, for the others: top-dose activity change, negative = inhibition, hits mostly inhibitors; 4.3% of 150,000 active; AID 894, 2007; active = well fitted inhibition curve with a large enough effect (not every such curve was filed as active); inconclusive = small, poorly fitted or top-dose-only effect, or another doubt; inactive = no such curve, though single readings can be large or run the other way;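 also: top concentration of the series not given in the record; plate controls included wells without enzyme; inactives centre near -10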
Target sequence (P15428 whole entry, looked up): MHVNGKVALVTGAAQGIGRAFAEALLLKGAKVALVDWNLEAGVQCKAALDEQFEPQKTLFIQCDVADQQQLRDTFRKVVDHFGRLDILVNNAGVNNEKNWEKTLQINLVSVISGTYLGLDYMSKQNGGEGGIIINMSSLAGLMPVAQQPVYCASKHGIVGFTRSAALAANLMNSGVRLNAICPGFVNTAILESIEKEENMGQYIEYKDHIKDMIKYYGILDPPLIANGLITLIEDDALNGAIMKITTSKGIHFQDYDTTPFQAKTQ
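NADH formation kinetics: reaction with 30 uM PGE2 and 1 mM NAD+ (final), 20 nM enzyme, Tris-HCl pH 8 with Tween 20, after 15 min compound preincubation at room temperature. Fluorescence change, last versus first of five reads.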
Numbers without * were called inactive; ? = inconclusive; & = joins results of further samples. % is scaled to controls: 0 for no effect and ±100 for the full control effect; potency is read from the fitted curve at half-maximal effect.

SMILES	HPGD inh
COc1ccc(N(C)S(=O)(=O)c2cccc(C(=O)OC(C(=O)Nc3cc(C)cc(C)c3)c3ccccc3)c2)cc1 (stereo not given)	-3.3%
CCCCNC(=O)c1c[nH]c2ccc(S(=O)(=O)Nc3ccc(OCC)cc3)cc2c1=O	?
O=C(O)C(O)c1ccco1 (stereo not given)	-11.6%
O=C1c2ccccc2C(=O)N1CCCc1nc2ccccc2c(=O)n1-c1cccnc1	-0.8%
CSCCC(NC(=O)c1cc([N+](=O)[O-])cc([N+](=O)[O-])c1)c1nc2ccccc2[nH]1 (stereo not given)	-9.0%
Cc1ccc(-n2nnnc2SCC(=O)c2cc(C)n(-c3cc(C)on3)c2C)c(C)c1	-18.5%
O=c1oc2ccccc2cc1-c1csc(Cc2nc(-c3ccc(Br)cc3)cs2)n1	-14.8%
O=C(NCc1ccccc1)c1cccc(COc2cccc(Cl)c2)c1	-12.5%
Cc1ccc(Nc2cc(C)nc(-c3ccccc3O)n2)cc1	?
Cn1c(=O)cc(OCCCC(=O)Nc2ccc3c(c2)OCCO3)c2ccccc21	-22.9%
COc1ccc(Cl)cc1N(CC(=O)Nc1ccc2c(c1)OCCO2)S(C)(=O)=O	-9.2%
COc1ccc(-c2nnn(CC(=O)Nc3sc4c(c3C#N)CCCC4)n2)cc1	-17.9%
COc1ccc(C(=O)OCCc2ccc(O)cc2)cc1	-14.8%
CN(c1ccc(O)cc1)c1nc(-c2ccccc2)cs1	15.8µM*
CN(C)C(=O)c1cc([N+](=O)[O-])cc([N+](=O)[O-])c1N(C)C	?
O=C(NCc1ccccn1)C1CCN(S(=O)(=O)N2CCCCC2)CC1	-0.8%
Cc1ccc(Cl)cc1N1CCN(S(C)(=O)=O)CC1	-13.2%
CCN1/C(=C2\OC(=S)N(C)C2=O)Sc2ccccc21	-21.2%
COc1cc(C(=O)Oc2c(CN3CCOCC3)cc(Cl)c3cccnc23)cc(OC)c1OC	-15.6%
O=C(Nc1ccccc1C(=O)N1CCOCC1)c1ccncc1	-4.4%
COCCn1c(=O)c(-c2ccccc2)nc2cnc(N3CCNCC3)nc21	?
COc1ccccc1NC(=O)CNC(=O)c1ccc(F)cc1	-22.7%
CCCCN(C)C(=O)CSc1nc(NCc2ccc(OC)cc2)c2ccccc2n1	-14.7%
COc1ccc(NC(C(=O)Nc2cccc(C(C)=O)c2)c2ccccc2)cc1 (stereo not given)	-6.0%
COC(=O)c1cc(OC)ccc1-c1ccc(OC)cc1	-13.3%
SMILES	HPGD inh
CCOC(=O)C1=C(N)N(c2ccc(N3CCCCC3)cc2)C(=O)C1	-11.3%
Cc1ccc2[nH]c(C)c(CC(=O)O)c2c1	-8.7%
CCOc1cccc(-c2nn3c(-c4ccccn4)nnc3s2)c1	-21.5%
C=C[C@]1(C)CC(=O)[C@@]2(O)[C@@]3(C)C(O)CCC(C)(C)C3C(O)C(OC(C)=O)[C@@]2(C)O1 (stereo not given in full)	-3.1%
Cc1ccc(C)c(-n2c(SCC(N)=O)nnc2-c2ccccn2)c1	-8.4%
COc1cccc(C2C3(C#N)C(N)=NC(OC)(OC)C23C#N)c1 (stereo not given)	-1.1%
COc1ccc(C)cc1NC(=O)C1CCCN1S(=O)(=O)c1ccc2c(c1)CCC(=O)N2 (stereo not given)	-8.0%
c1ccc(CN2C3=NCCCN3c3ccccc32)cc1	-10.0%
CC(C)C(=O)Nc1cccc(NC(=S)NC(=O)C(c2ccccc2)c2ccccc2)c1	-19.2%
COc1cccc(C2=NOC(C(=O)NCc3ccccc3)C2)c1 (stereo not given)	-15.5%
O=C1CCCC(=O)N1c1ccc(N2CCN(c3ccccc3)CC2)c([N+](=O)[O-])c1	-8.7%
CC(C)CCn1c(-c2nonc2N)nc2ccccc21	-12.3%
Cn1c(SCc2ccc(F)cc2)nnc1-c1cccs1	-12.2%
Cc1cccc(NC(=O)C2CCN(S(=O)(=O)c3cccs3)CC2)n1	-2.6%
CCc1ccc(OCC(=O)NC(C)(C)C)cc1	-15.2%
CCOc1ccc(OCC)c(NC(=O)CN2CCN(c3cccc(C)c3)CC2)c1	-0.4%
O=[N+]([O-])c1ccc2c(N=Nc3ccc4ccccc4c3O)c(O)cc(S(=O)(=O)O)c2c1	2.82µM*
O=C(N/N=C/c1ccc(O)cc1)c1[nH]c2ccc(Br)cc2c1-c1ccccc1	-16.5%
CC(C)(C)Nc1nc(C(N)=O)nc(N2CCOCC2)n1	1.8%
COc1cc(/C=N/NC(=O)COc2ccc(C)cc2)ccc1OC(=O)c1cccs1	-12.6%
COCc1cc(=O)[nH]c2cc(NC(=O)C3CC3)c(C)cc12	?
CC(C)(c1cc(Br)c(OCC(Br)CBr)c(Br)c1)c1cc(Br)c(OCC(Br)CBr)c(Br)c1 (stereo not given)	-5.3%
CC(=O)c1c(C)[nH]c(C(=O)COc2cc(C)cc(C)c2)c1C	-5.3%
CCc1ccc(OCC(=O)Nc2ccc(S(=O)(=O)N3CCCC3)cc2)c(Br)c1	-7.1%
COCCNC(=O)c1c(N)n(-c2ccccc2)c2nc3ccccc3nc12	?
SMILES	HPGD inh
O=C(/C=C/c1cccc([N+](=O)[O-])c1)Nn1c(-c2ccccc2F)nc2ccccc2c1=O	-17.7%
COc1ccc(C(=O)Nc2ccc(NC(=O)c3cnccn3)cn2)cc1	-28.4%
COc1cccc(N(C(=O)Cn2nnc3ccccc32)C(C(=O)NCc2ccco2)c2cccnc2)c1 (stereo not given)	-2.6%
CCN=C1SC(C(=O)Nc2ccc(Cl)c(Cl)c2)CC(=O)N1CC (stereo not given)	-2.2%
COc1ccc(CCNC(=O)c2cc(C(=O)c3cc(Cl)ccc3O)cn(CCc3ccc(OC)cc3)c2=O)cc1	-8.5%
NC(=S)Nc1cnc2ccccc2c1	-9.9%
CCN(CC)S(=O)(=O)c1ccc2c(c1)c(=O)c(C(=O)NCCOC)cn2C	-6.6%
CCNc1nc(NC(C)C)nc(NS(=O)(=O)c2ccc(Cl)cc2)n1	-3.6%
Cc1coc(C)c1C(=O)CC1(O)C(=O)N(CCc2ccccc2)c2ccccc21 (stereo not given)	?
c1ccc2c(c1)nnn2Cc1nnc2sc(-c3ccc4c(c3)OCCO4)nn12	?
Cn1c(=O)c2cn(Cc3ccc(Cl)cc3)cc2n(C)c1=O	-13.9%
COc1ccc2c(c1)c(=O)c(C(=O)O)c(-c1ccc3c(c1)OCO3)n2C	-29.9%
COCCn1c(COc2ccc(Cl)cc2)nnc1SCC(N)=O	-4.1%
CCNC(=O)CN(c1ccc(C)cc1)S(=O)(=O)c1ccccc1	0.7%
CCC(Sc1nncn1C)C(=O)Nc1nnc(-c2ccc(Cl)cc2)s1 (stereo not given)	?
CCC(/C=N/NC(=O)C1COc2ccccc2O1)CC (stereo not given)	-20.9%
O=C(O)c1cnn2c(C(F)(F)F)cc(-c3ccccc3)nc12	-8.0%
COC(=O)CNC(=O)c1cccs1	-5.5%
O=C(NC1CCCCC1)c1ccc(Cn2cc(Br)cn2)o1	-7.8%
Cc1cnc(C(=O)OCC(=O)NCCc2ccccc2)cn1	-13.9%
CC1(C)C(c2cccs2)=[N+]([O-])C2(CCCCC/C2=N\NC(N)=O)N1O (stereo not given)	-7.0%
Cc1ccccc1	-4.4%&-2.3%
CCCNC(=O)c1cc(SC)ccc1Cl	-25.0%
CC(=O)N/C(=C/c1ccc(OC(F)F)cc1)C(=O)O	-3.5%
O=C(NNC(=O)c1cc(OCC(F)(F)F)ccc1OCC(F)(F)F)c1ccc(Cl)c(Cl)c1	-3.9%

Three entries from above, with the structure last:
HPGD inh	canonical_smiles
-4.1%	COCCn1c(COc2ccc(Cl)cc2)nnc1SCC(N)=O
0.7%	CCNC(=O)CN(c1ccc(C)cc1)S(=O)(=O)c1ccccc1
?	CCC(Sc1nncn1C)C(=O)Nc1nnc(-c2ccc(Cl)cc2)s1 (stereo not given)

Additional entries follow.
SMILES	HPGD inh
CC(NC(=O)c1sc2ccccc2c1Cl)C1CCCO1 (stereo not given)	-25.2%
Cc1ccc(C)c(NC(=O)CN(C)S(=O)(=O)c2ccc(F)cc2)c1	-15.5%
O=C(COc1cccnc1[N+](=O)[O-])Nc1ccc2c(c1)OC(F)(F)O2	-7.5%
CCOC(=O)c1ccc(NC(=O)C(=O)NCC2CCCO2)cc1 (stereo not given)	-2.2%
COC(=O)c1ccc(NC(=O)CN2CCN(c3ccccc3C)CC2)cc1	-15.1%
COc1cc(C)c(NC(=S)Nc2ccc(Cl)c(Cl)c2)cc1OC	15.8µM*
CCCn1c(=O)c(C(=O)NCc2cccnc2)c(O)c2ccccc21	-13.4%
Cc1[nH]c2ccc(F)cc2c(=O)c1SC(F)(F)C(F)F	-7.2%
Cc1ccc(NC(=O)CN(C)C(=O)CSc2nc3ccccc3o2)cc1	-11.0%
C/C(=C\C(=S)Nc1ccccc1)Nc1ccc2ccccc2c1	?
COC(=O)NNC(=O)COc1cc(C)ccc1C	0.0%
Cc1nc(C)n(C(C)CC(=O)O)n1 (stereo not given)	-3.4%
CC(C)c1ccc(CN2CC(C(=O)O)CC2=O)cc1 (stereo not given)	-0.6%
CC(C)(C)c1ccc(/C([O-])=C(/C(=S)NCc2ccco2)[n+]2ccccc2)cc1	-21.8%
CCC(=O)Nn1c(C)nnc1C	-9.1%
Oc1ccc(N=Cc2ccc(O)c(O)c2)cc1	28.2µM*
COc1cccc(NC(=O)n2nc(N)cc2-c2ccc(Cl)cc2)c1	-3.8%
CC1CCC2(CC1)NC(=O)N(Cc1nc(-c3ccccc3)no1)C2=O (stereo not given)	-7.8%
Cc1ccc2c(c1)N(CC(=O)N1CCCCCC1)C(=O)CO2	-4.0%
NC(=O)c1cccc(S(=O)(=O)N2CC(c3ccccc3)CC2=O)c1 (stereo not given)	-11.0%
Cc1occc1C(=O)Nc1nn[nH]n1	-8.1%
COc1ccccc1Nc1nc(N)nc(CN2CCOCC2)n1	-5.8%
COc1cc(/C=N/NC(=O)CN(Cc2ccccc2)S(=O)(=O)c2ccc3c(c2)OCCO3)ccc1O	-28.3%
Cn1c(C(=O)O)c(CC(=O)N2CCC(Cc3ccccc3)CC2)c2ccccc21	-21.1%
COc1ccc(C(=O)OCC(=O)Nc2ccc(F)c(F)c2)cc1OC	-21.2%
SMILES	HPGD inh
CC1CCCCC12NC(=O)N(Cn1nnc3ccccc3c1=O)C2=O (stereo not given)	-16.4%
CN(C(=O)c1ccncc1)C1CC(C)(C)N(O)C(C)(C)C1	-11.2%
Cn1c(SCCC(=O)O)nnc1-c1ccncc1	-3.2%
CSCC[C@H](NC(=O)COc1ccc(Cl)cc1Cl)c1nc2ccccc2[nH]1	-16.5%
Cc1[nH]c2ccccc2c1-c1cc(-c2cc(-c3c(C)[nH]c4ccccc34)on2)no1	0.5%
Cn1c(=O)c2c(nc(-n3ccnc3)n2Cc2ccc(Cl)cc2Cl)n(C)c1=O	-4.0%
COc1ccc(C2C3=C(CC(C)(C)CC3=O)Nc3c2c(=O)[nH]c(=O)n3Cc2ccccc2)cc1OC (stereo not given)	?
O=C(COC(=O)c1cc(S(=O)(=O)N2CCOCC2)c(Cl)cc1Cl)Nc1ncc(C(F)(F)F)cc1Cl	-14.0%
COc1nc(C#N)c(N2CCOCC2)o1	4.2%
CCCCn1nc(CC(=O)O)c2ccccc2c1=O	-4.5%
CCCCCCOc1ccc(OCC(O)CN2C(=O)NC(C)(C)C2=O)cc1 (stereo not given)	-9.3%
O=C(c1ccco1)N1CCC(n2nnc3ccccc32)CC1	-21.3%
Cc1c(C)n(CC(O)CN2CCOCC2)c2ccccc12 (stereo not given)	-23.0%
O=C(CSc1ccccc1Cl)c1ccco1	-20.1%
CCN(CC)CCCNc1oc(-c2cccc(Cl)c2)nc1C#N	?
CC1=C(C(=O)OCC(C)C)C(c2cc3c(cc2Br)OCO3)NC(=O)N1C (stereo not given)	-10.7%
Cc1nn(Cc2ccccc2)c2c1C(c1ccc(Cl)cc1)C(C#N)=C(N)O2 (stereo not given)	1µM*
O=C(Nc1cccc(NC(=O)c2ccco2)c1)c1cnccn1	-17.0%
C=CCNC(=O)c1onc(CSc2cccc(OC)c2)c1C(=O)O	-12.9%
CCC(C)NCC(=O)Nc1sc2c(c1C(N)=O)CCC2 (stereo not given)	-12.9%
COc1ccc2occ(C(=O)c3cccs3)c2c1	?
CCOc1ccccc1N(C(=O)CNC(=O)c1ccco1)C(C(=O)NC(C)(C)C)c1ccncc1 (stereo not given)	-9.5%
C#CC(CC)(CC)NC(=S)Nc1cccc(C(C)=O)c1	-9.3%
CCCCC1C(C#N)=C(C)NC2=C1C(=O)CC(C)(C)C2 (stereo not given)	?
Clc1cccc(NCc2nnc(SCc3ccc(Cl)cc3Cl)o2)c1	-14.9%
COC(=O)c1ccc(N)c(N=CC2=C(O)CC(C)(C)CC2=O)c1	-22.1%
CCOC(=O)CC(=O)CSc1nc2c(c(-c3cccs3)c1C#N)CCC2	-13.6%
CC(=O)CC(=O)[C@@]1(O)CC[C@@H]2[C@@H]3C=C(C)C4=CC(=O)CC[C@@H]4[C@H]3CC[C@]21C	-6.7%
N#CC(c1ccccc1)c1ccc2c(C(F)(F)F)cc(C(F)(F)F)nc2n1 (stereo not given)	-10.7%
CC(C)c1ccc(-c2c(C#N)c(N)nc(SCC(=O)N3CCCCC3)c2C#N)cc1	?

Copied from the list:
COc1ccc(-c2nnn(CC(=O)Nc3sc4c(c3C#N)CCCC4)n2)cc1 | HPGD inh: -17.9%
CC1CCCCC12NC(=O)N(Cn1nnc3ccccc3c1=O)C2=O (stereo not given) | HPGD inh: -16.4%
COc1ccc(C(=O)OCCc2ccc(O)cc2)cc1 | HPGD inh: -14.8%

Quoted at random: two compounds from above.
SMILES	HPGD inh
O=C(COC(=O)c1cc(S(=O)(=O)N2CCOCC2)c(Cl)cc1Cl)Nc1ncc(C(F)(F)F)cc1Cl	-14.0%
Cc1[nH]c2ccccc2c1-c1cc(-c2cc(-c3c(C)[nH]c4ccccc34)on2)no1	0.5%

Source: PubChem BioAssay

A portion of the library (hit frequency here may not be typical).
